Assay outcomes deposited in PubChem BioAssay by National Center for Advancing Translational Sciences (NCATS).
Vaccinia Venus: qHTS for Stage-Specific Inhibitors of Vaccinia Orthopoxvirus: Venus Reporter Primary qHTS; Vaccinia virus Venus reporter expression, fluorescence; Potency, µM (top dose mostly 36.5 µM), for inactives: top-dose activity change, negative = inhibition, hits mostly inhibitors; 330,000 compounds, 0.46% hits; AID 720580, 2013; active means well fitted inhibition curve with a large enough effect; inconclusive means small, poorly fitted or top-dose-only effect; inactive means no such curve, though single readings can be large or run the other way; tested in A549 cells; also: nearly all actives have a fitted effect of over 30% in size; inactives centre near -10
Vaccinia mCherry: qHTS for Stage-Specific Inhibitors of Vaccinia Orthopoxvirus: mCherry Reporter Primary qHTS; Potency, µM (top dose mostly 36.5 µM), for the others: top-dose activity change, negative = inhibition, actives largely listed as inhibitors; 310,000 compounds, 0.63% hits; AID 720579, 2013; Vaccinia virus mCherry reporter infection, fluorescence; about a quarter of the inactives have no number; active = well fitted inhibition curve with a large enough effect; inconclusive = small, poorly fitted or top-dose-only effect; inactive = no such curve, though single readings can be large or run the other way; tested in A549 cells; also: nearly all actives have a fitted effect of over 35% in size; inactives centre near -10
* marks the source's active call; other numbers are inactive results; [ ] = dose if it differs, or a comment. % is scaled to controls: 0 for no effect and ±100 for the full control effect; potency is read from the fitted curve at half-maximal effect.

COc1ccccc1CN1CCCC(N2CCN(c3ccc(F)cc3)CC2)C1 (stereo not given) was read as Vaccinia Venus -10.2% and Vaccinia mCherry -22.2%.
Screening CC(C)Cn1c(=O)c2c(nc3n2CCCN3Cc2ccccc2)n(C)c1=O returned Vaccinia Venus -24.8% and Vaccinia mCherry -25.4%.
CCCOc1ccc(F)cc1-c1cc(C(=O)Nc2cc(OC)c(OC)c(OC)c2)[nH]n1 was read as Vaccinia Venus -26.7% and Vaccinia mCherry -15.7%.
`COC(=O)c1cn(C(C)C(=O)NCc2ccco2)c2ccccc12` (stereo not given) gave Vaccinia Venus -6.0% and Vaccinia mCherry -14.7%.
For COC(=O)c1c(C)cc(OC)cc1O the results were Vaccinia Venus 0.0% and Vaccinia mCherry inactive.
CCn1cc(CN2CCCC(CNS(=O)(=O)c3ccc(OC)cc3)C2)cn1 (stereo not given) was read as Vaccinia Venus -4.0% and Vaccinia mCherry -5.2%.
Screening COc1ccc(NC(=O)c2cccnc2)c([N+](=O)[O-])c1 returned Vaccinia Venus -27.7% and Vaccinia mCherry -24.6%.
`O=C(CNC1CCCCC1)NCC1(c2ccccc2)CCCC1` gave Vaccinia Venus -17.6% and Vaccinia mCherry inactive.
CC(C)Nc1ccc(C(CC(N)=O)NC(=O)Cc2ccc(Cl)cc2)cc1[N+](=O)[O-] (stereo not given) was read as Vaccinia Venus -12.7% and Vaccinia mCherry inactive.
O=c1cc(-c2ccccc2)nc(SCc2ccccc2)[nH]1 was read as Vaccinia Venus -13.4%.
For CCCCN(C(=O)C1CSC2(C)CCC(=O)N12)c1c(N)n(CC(C)C)c(=O)[nH]c1=O (stereo not given) the results were Vaccinia Venus -7.3% and Vaccinia mCherry -16.8%.
`CSc1c(SCc2ccccc2)cnn(Cc2ccccc2)c1=O` gave Vaccinia Venus -12.8% and Vaccinia mCherry inactive.
For Cc1ccc(CCN2CCN=C2Nc2ccccc2)cc1 the results were Vaccinia Venus -19.7% and Vaccinia mCherry inactive.
Screening c1ccc(Cn2nnnc2C(c2cccnc2)N2CCN(c3ccccc3)CC2)cc1 (stereo not given) returned Vaccinia Venus -14.6% and Vaccinia mCherry -0.4%.
Screening CN(C)Cc1c(-c2ccc(Cl)cc2)nc2ccccn12 returned Vaccinia Venus -7.6% and Vaccinia mCherry -11.0%.
CCOC(=O)c1ccccc1NC(=O)Nc1cc2c(cc1N1CCCCC1)n(C)c(=O)n2C was read as Vaccinia Venus -26.2% and Vaccinia mCherry -17.5%.
For Cc1cc(N/C=C\c2nnnn2-c2ccc(F)cc2)no1 the results were Vaccinia Venus -25.9% and Vaccinia mCherry -7.4%.
For Cc1ccc(C(=O)C2=C(O)C(=O)N(CC3CCCO3)C2c2ccccc2F)o1 (stereo not given) the results were Vaccinia Venus -2.4% and Vaccinia mCherry -9.0%.
Screening O=C1[C@H]2[C@@H](c3ccc(F)cc3)N3C(=O)N(c4ccc(Br)cc4)C(=O)[C@@]3(Cc3ccc(Cl)cc3)[C@H]2C(=O)N1C1CCCCC1 returned Vaccinia Venus -22.9% and Vaccinia mCherry -16.3%.
`CC(C)(C)OC(=O)N1CCC[C@H]1c1nnc(SCc2cccc(Cl)c2)o1` gave Vaccinia Venus -7.1%[7.34 µM] and Vaccinia mCherry -6.1%[7.34 µM].
Screening CC1CCCCC1NC(=O)COC(=O)c1cc(=O)c2ccccc2o1 (stereo not given) returned Vaccinia Venus 3.1% and Vaccinia mCherry 0.5%.
For O=C(C1CCC(CNS(=O)(=O)c2ccc(Br)s2)CC1)N1CCN(c2ccccc2Cl)CC1 (stereo not given) the results were Vaccinia Venus -16.1% and Vaccinia mCherry -21.9%.
O=C(/C=C/c1ccco1)Oc1ccc(C(=S)N2CCOCC2)cc1 was read as Vaccinia Venus -13.0% and Vaccinia mCherry -22.4%.
For O=C(CN(Cc1ccccc1)S(=O)(=O)c1ccc(F)cc1)NCc1ccccn1 the results were Vaccinia Venus -6.1% and Vaccinia mCherry -10.3%.
`O=C(Nc1nnc(C(F)(F)F)s1)C1COc2ccccc2O1` (stereo not given) gave Vaccinia Venus inconclusive and Vaccinia mCherry inconclusive.
For O=C(Cn1c(=O)n(CCCS(=O)(=O)C2CCCCC2)c(=O)c2ccccc21)Nc1ccccc1F the results were Vaccinia Venus -16.1% and Vaccinia mCherry -22.8%.
COc1cc(C(=O)OCC2CC(c3ccccc3)=NO2)cc(OC)c1OC (stereo not given) was read as Vaccinia Venus 9.3% and Vaccinia mCherry -4.6%.
Screening Cc1cccc(S(=O)(=O)NC(=O)C2(C)CCN2C(=O)CC2CCCCC2)c1 (stereo not given) returned Vaccinia Venus 1.4% and Vaccinia mCherry 18.5%.
`COC(=O)[C@@H](NCc1cccc(CN([C@H](C(=O)OC)C(C)C)S(C)(=O)=O)c1)C(C)C` gave Vaccinia Venus -10.3% and Vaccinia mCherry inactive.
Screening COc1ccc(-n2c(C)c([N+](=O)[O-])c3ccc(O)c(CN4CCCCC4)c32)cc1 returned Vaccinia Venus -17.2% and Vaccinia mCherry -17.6%.
`COc1ccc(N2CCN(C(=O)CCCCCn3c(=O)[nH]c4ccsc4c3=O)CC2)cc1` gave Vaccinia Venus -12.8% and Vaccinia mCherry -19.5%.
`Clc1cccc(Nc2ncnc3c2nc2n3CCCCC2)c1` gave Vaccinia Venus -13.6%[7.34 µM] and Vaccinia mCherry -8.8%[7.34 µM].
`Clc1ccccc1-c1nc(N/N=C/c2cccnc2)c2ccccc2n1` gave Vaccinia Venus -5.8%.
Screening O=C1CCN(Cc2ccccc2)C=C1c1ccc(C(F)(F)F)cc1 returned Vaccinia Venus -13.3% and Vaccinia mCherry 12.5%.
Screening COc1cccc(CNC(=O)c2cc3c(s2)-c2c(C)cccc2OC3)c1 returned Vaccinia Venus -22.3% and Vaccinia mCherry inactive.
O=C(CN1CCCC1)OCCCc1ccccc1 was read as Vaccinia Venus 2.4% and Vaccinia mCherry inactive.
`CCOc1ccc(OCC)c(NC(=O)c2ccc(CNc3c(N4CCCC4)c(=O)c3=O)cc2)c1` gave Vaccinia Venus 0.0% and Vaccinia mCherry -11.3%.
`CCOc1ccc(-c2cc(CCCC(=O)NCCc3ccc(OCC)c(OCC)c3)no2)cc1` gave Vaccinia Venus -11.9% and Vaccinia mCherry -10.5%.
For CC(=O)c1ccc(N(C(=O)c2csnn2)C(C(=O)NC(C)(C)C)c2cccs2)cc1 (stereo not given) the results were Vaccinia Venus -7.3% and Vaccinia mCherry -15.0%.
For c1ccc(OCc2nn3c(-c4n[nH]c5c4CCC5)nnc3s2)cc1 the results were Vaccinia Venus -10.6%.
Screening N#Cc1ccccc1S(=O)(=O)N1CCN(c2cnccn2)CC1 returned Vaccinia Venus 4.7% and Vaccinia mCherry -10.4%.
For COc1ccc(Cn2c(=O)c3ccccc3n3c(-c4cccc(OC)c4OC)nnc23)cc1 the results were Vaccinia Venus 17.4% and Vaccinia mCherry inconclusive.
For COC(=O)[C@@]1(Cc2ccccc2)[C@H]2C(=O)N(Cc3ccccc3)C(=O)[C@H]2[C@H]2CN=C(SC)N21 the results were Vaccinia Venus -14.3% and Vaccinia mCherry inconclusive.
Screening O=C(NNC(=O)c1cccnc1)Nc1cccc(Cl)c1Cl returned Vaccinia Venus -3.4% and Vaccinia mCherry -11.2%.
Screening CC(C)c1ccc(/C=C2\C(=O)N(CCN3CCOCC3)C(=S)N2C)cc1 returned Vaccinia Venus -0.5% and Vaccinia mCherry inactive.
`CCc1nc2ccccc2n(CCOCCOCCn2c(=O)c(CC)nc3ccccc32)c1=O` gave Vaccinia Venus -6.5%.
Screening O=C(Nc1ccccc1)N1CCN(c2nc(-c3ccccc3)ns2)CC1 returned Vaccinia Venus -22.1% and Vaccinia mCherry -8.4%.
For CC(C)C(=O)Nc1nc2c(ncn2C2CC(O)C(CO)O2)c(=O)[nH]1 (stereo not given) the results were Vaccinia Venus -9.0% and Vaccinia mCherry inactive.

Overlap with the part before: two compounds, followed by the next part.
Screening O=C(Nc1ccccc1)N1CCN(c2nc(-c3ccccc3)ns2)CC1 returned Vaccinia Venus -22.1% and Vaccinia mCherry -8.4%.
For CC(C)C(=O)Nc1nc2c(ncn2C2CC(O)C(CO)O2)c(=O)[nH]1 (stereo not given) the results were Vaccinia Venus -9.0% and Vaccinia mCherry inactive.
For COc1cccc(NC(=O)C2(C)CCN2CCc2ccccc2)c1 (stereo not given) the results were Vaccinia Venus -5.6% and Vaccinia mCherry -28.2%.
Screening CN(c1ccccc1)S(=O)(=O)c1ccc(C(=O)NCC2CCCO2)cc1 (stereo not given) returned Vaccinia Venus -16.6% and Vaccinia mCherry -11.7%.
COc1ccccc1N=Nc1nc(-c2ccccc2)c(-c2ccccc2)[nH]1 was read as Vaccinia Venus 14.5% and Vaccinia mCherry inactive.
`COc1ccc(-c2ccccc2)cc1NC(=O)[C@@H]1O[C@H](CO)[C@H](O)[C@H](O)[C@H]1O` gave Vaccinia Venus -17.8% and Vaccinia mCherry 25.1%.
For C/C(=N\NC(=S)Nc1cccc(C)c1)c1cccc(N)c1 the results were Vaccinia Venus -13.8% and Vaccinia mCherry -12.6%.
Screening NC(=S)N/N=C/c1coc2ccc(Cl)cc2c1=O returned Vaccinia Venus 4.0% and Vaccinia mCherry 2.0%.
Screening Cn1c(=O)oc2cc(S(=O)(=O)N3CCC(N4CCCCC4)CC3)ccc21 returned Vaccinia Venus -5.0% and Vaccinia mCherry -4.3%.
Screening CCC(CC)C(=O)Oc1c(C(=O)N(C)C)cccc1-c1ccccc1 returned Vaccinia Venus -3.9% and Vaccinia mCherry -8.9%.
Screening CCOC(=O)C1C(C(=O)OCC)C1(c1ccccc1)c1ccccc1 (stereo not given) returned Vaccinia Venus -10.0% and Vaccinia mCherry -12.2%.
Screening Cc1nc2ccccc2nc1OCC(=O)N1CCN(c2ccccc2)CC1 returned Vaccinia Venus -12.2% and Vaccinia mCherry -14.6%.
For Cc1ccc(C(=O)Nc2ccccc2C(=O)N2CCOCC2)cc1[N+](=O)[O-] the results were Vaccinia Venus -3.1% and Vaccinia mCherry -9.4%.
For CCC(NC(=O)Nc1ncccc1C)(C(F)(F)F)C(F)(F)F the results were Vaccinia Venus -8.3%.
`Cc1cc(C(=O)COc2ccc([N+](=O)[O-])cc2)c(C)n1C1CC1` gave Vaccinia Venus -6.0% and Vaccinia mCherry -11.8%.
COc1ccccc1CNC(=O)[C@@H]1CCCN1C(=O)[C@@H]1Cc2ccccc2CN1C(=O)OC(C)(C)C was read as Vaccinia Venus -15.6% and Vaccinia mCherry -18.7%.
Screening C[C@@H]1NC(=O)[C@H](CCC(=O)O)NC(=O)c2cc([N+](=O)[O-])cc(F)c2NCCC[C@@H](C(N)=O)NC1=O returned Vaccinia Venus -9.9% and Vaccinia mCherry inactive.
For O=C(COc1ccc(Cl)cc1Cl)NNC(=O)c1cccnc1 the results were Vaccinia Venus -3.8% and Vaccinia mCherry inactive.
`Cc1ccccc1[C@@]1(C)ON(c2ccccc2C(F)(F)F)C1=O` gave Vaccinia Venus inconclusive and Vaccinia mCherry inconclusive.
Screening COCCOc1ccc(C(F)(F)F)cc1NC(=O)c1ccc(C(F)(F)F)cc1 returned Vaccinia Venus -9.8% and Vaccinia mCherry -9.8%.
Screening CCc1cccc(CC)c1NC(=O)/C(C#N)=C/c1ccccc1C(F)(F)F returned Vaccinia Venus inconclusive and Vaccinia mCherry -17.9%.
Fc1ccc(-c2nc3n(n2)Cc2ccccc2-3)cc1 was read as Vaccinia Venus -14.7%.
`CCOc1ccc(-c2nnc(SCC(=O)NCc3ccccc3Cl)o2)cc1` gave Vaccinia Venus -14.7% and Vaccinia mCherry inactive.
Screening Cc1occc1C(=O)Nc1cccc([N+](=O)[O-])c1 returned Vaccinia Venus -19.0% and Vaccinia mCherry -11.1%.
For O=C(Nc1ccc(F)cc1Cl)n1ncc2cc(Cl)ccc21 the results were Vaccinia Venus -20.0% and Vaccinia mCherry -6.8%.
CC1(CSc2ccccc2)CC(=O)N1 (stereo not given) was read as Vaccinia Venus -18.1% and Vaccinia mCherry inactive.

The last 2 entries of the part above are carried over, then new ones follow.
For O=C(Nc1ccc(F)cc1Cl)n1ncc2cc(Cl)ccc21 the results were Vaccinia Venus -20.0% and Vaccinia mCherry -6.8%.
CC1(CSc2ccccc2)CC(=O)N1 (stereo not given) was read as Vaccinia Venus -18.1% and Vaccinia mCherry inactive.
CCC(C(=O)N1CCN(c2ncccn2)CC1)c1ccccc1 (stereo not given) was read as Vaccinia Venus -4.4% and Vaccinia mCherry inconclusive.
Screening COc1cc(OC)c(NC(=O)c2sc3ncn(CC(=O)N4CCOCC4)c(=O)c3c2C)cc1Cl returned Vaccinia Venus 7.8% and Vaccinia mCherry -19.8%.
Screening Cc1ccc(-n2nc(C)c3c(C)cc(=O)n(CC(=O)Nc4ccc(Br)cc4F)c32)cc1 returned Vaccinia Venus -8.4% and Vaccinia mCherry inactive.
`NC(Cc1ccc(F)cc1)c1csc(Nc2ccc(C(=O)c3ccccc3)cc2)n1` (stereo not given) gave Vaccinia Venus inconclusive and Vaccinia mCherry inconclusive.
`O=C(COc1ccc(Cl)cc1)Nc1nc(-c2ccncc2)cs1` gave Vaccinia Venus -1.9% and Vaccinia mCherry -12.2%.
For Cc1ccc(N2C(=O)CSC2c2cccs2)cc1 (stereo not given) the results were Vaccinia Venus -11.6% and Vaccinia mCherry -19.5%.
Screening OCc1cccc(-c2csc(C(O)c3ccccc3)n2)c1 (stereo not given) returned Vaccinia Venus -17.3% and Vaccinia mCherry inconclusive.
